High-throughput results as filed in PubChem BioAssay.
CtBP-E1A blk: CtBP/E1A binding inhibition | AlphaScreen GST-E1A/His-CtBP binding, 1536-well; hits give low values; control for the full effect not named in the record | activity change, % (concentration not given with the values) | 340,000 compounds, 0.49% hits; in the data active means activity change below about -65%; inconclusive means about -30% to -65%; inactive means above about -30%; further: on the % scale 0 is the no-effect control and ±100 the full control effect
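GST-E1A and His-tagged CtBP (125 nM each as 5X stock) were preincubated with pin-transferred compound for 2 h at 37 °C in the dark, then glutathione donor and nickel acceptor beads were added for 1 h before AlphaScreen reading.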
TRPML1 ag: human mucolipin-1 channel agonism; Q9GZU1; TRPML1-expressing cells, Ca2+ dye fluorescence, FDSS; host cell line not named in the record; reference of the full effect not given here; activation, % (concentration not given with the values); 410,000 compounds, 0.12% hits; in the data active = activation above about 50%; inconclusive = about 30% to 50%; inactive = below about 30%; further: 0% is about no effect; the text of the record puts the active cut at 80%
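Kinetic FDSS Ca2+ read in Tet-induced TRPML1-DL cells (ABD Ca8 dye plus quencher, 45-90 min RT loading): baseline, then compound, then 110 s agonist window; EC80 agonist 54-4 at 4uM final added afterwards for a 110 s antagonist window.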
D2 PAM: human D2 receptor positive allosteric modulation | P14416 | 360,000 compounds, 0.23% hits | DiscoveRx D2 beta-arrestin cells, luminescence, 90 min; 100% = 57 uM dopamine signal | potentiation, % (test concentration not listed); active = potentiation of 50% or more; inconclusive = 30% to 50%; inactive = 30% or less;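 further: compound concentration not given in the record; tested on top of an EC20 dose of dopamine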
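D2 cells co-treated with compound plus 50 nM dopamine (EC20) for 90 min at 37 deg C to detect potentiation. Beta-arrestin recruitment was read as enzyme-fragment luminescence after 1 h at ambient temperature. Full response was set by 57 uM dopamine.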
TRPV1 PAM: human TRPV1 potentiation; TRPV1-expressing cells, Fluo-8 calcium influx, capsaicin EC20 potentiation; host cell line not named in the record; control for the full effect not named in the record; potentiation, % at 8.33 µM; 320,000 compounds, 0.02% hits; AID 540277; active means potentiation above 80%; inconclusive means 30% to 80%; inactive means below 30%; further: 0% is about no effect
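Cells expressing TRPV1 were dye-loaded with Fluo-8 and read kinetically: 10 s baseline, 3 min after compound (agonist portion), then 2 min after EC20 capsaicin (allosteric enhancer portion). Calcium-bound dye fluorescence at 480/520 nm.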
TRPML1 blocker: human mucolipin-1 channel inhibition; Q9GZU1; activity change, negative = inhibition, % (concentration not given with the values); AID 624415; 390,000 compounds, 0.02% hits; TRPML1-inducible cells, Ca2+ dye fluorescence, FDSS; hits give low values; inhibition of EC80 agonist-evoked calcium signal; in the data active means activity change below about -50%; inconclusive means about -30% to -50%; inactive means above about -30%;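 further: stimulus is agonist 54-4 at its EC80 concentration; on the % scale 0 is the no-effect control and ±100 the full control effect; the text of the record puts the active cut at -80%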
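TRPML1-DL cells, Tet-induced overnight (~16 h, 37 °C) at 1,500 cells/well, were loaded with Ca8 no-wash dye plus quencher for 45-90 min at room temperature. Compounds were pinned during FDSS kinetic reading; agonist 54-4 at EC80 (4 uM final) then added.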
Six1-Eya2 inh: inhibitors of human Six1/Eya2 interaction | 360,000 compounds, 0.56% hits | AID 651725 | Q15475+O00167 | activity change, % (concentration not given with the values) | AlphaScreen GST-Six1/His-Eya2 binding, biochemical; hits give low values; control for the full effect not named in the record; in the data active = activity change below about -65%; inconclusive = about -30% to -65%; inactive = above about -30%; further: on the % scale 0 is the no-effect control and ±100 the full control effect
Target sequence (O00167 whole entry, looked up): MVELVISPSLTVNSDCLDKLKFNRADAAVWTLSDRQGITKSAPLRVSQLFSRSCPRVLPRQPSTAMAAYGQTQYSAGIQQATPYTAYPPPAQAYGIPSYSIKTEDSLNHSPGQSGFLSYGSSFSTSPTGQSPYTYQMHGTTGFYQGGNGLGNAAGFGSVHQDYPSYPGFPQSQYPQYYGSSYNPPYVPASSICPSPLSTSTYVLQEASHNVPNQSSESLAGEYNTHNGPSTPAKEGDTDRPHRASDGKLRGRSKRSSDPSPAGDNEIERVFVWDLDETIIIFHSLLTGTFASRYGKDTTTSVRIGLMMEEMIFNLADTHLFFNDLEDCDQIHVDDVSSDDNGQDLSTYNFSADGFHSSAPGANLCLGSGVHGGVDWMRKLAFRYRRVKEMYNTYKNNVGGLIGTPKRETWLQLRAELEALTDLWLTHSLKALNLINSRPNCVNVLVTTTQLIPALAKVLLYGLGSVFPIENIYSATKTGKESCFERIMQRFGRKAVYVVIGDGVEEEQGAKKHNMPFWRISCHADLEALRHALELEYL
Target sequence (Q15475 whole entry, looked up): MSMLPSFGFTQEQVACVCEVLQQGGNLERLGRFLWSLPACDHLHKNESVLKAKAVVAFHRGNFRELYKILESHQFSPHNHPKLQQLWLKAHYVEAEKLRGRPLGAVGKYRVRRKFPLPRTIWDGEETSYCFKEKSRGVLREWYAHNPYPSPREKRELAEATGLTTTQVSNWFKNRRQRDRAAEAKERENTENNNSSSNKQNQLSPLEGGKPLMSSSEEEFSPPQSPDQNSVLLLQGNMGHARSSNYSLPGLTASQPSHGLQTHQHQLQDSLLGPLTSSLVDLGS
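Homogeneous AlphaScreen proximity assay pairing GST-Six1 with His-tagged Eya2 (added as 5X mix: 250 nM and 500 nM) in 50 mM Tris pH 8.0, 300 mM NaCl, 1 mM TCEP. Glutathione donor and nickel acceptor beads; 1 h, 37 °C, dark.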
An asterisk follows results filed as active; ? = inconclusive; · = not tested or not shown.

SMILES	CtBP-E1A blk	TRPML1 ag	D2 PAM	TRPV1 PAM	TRPML1 blocker	Six1-Eya2 inh
CCN1C(=O)[C@H]2[C@@H](c3ccc(OC)cc3)N3C(=O)CN(CC4CC4)C(=O)[C@@]3(C)[C@H]2C1=O	-1	-0.4	-6	2	1	3
CC(c1ccon1)N(C)Cc1c(C(=O)N(C)Cc2ccccc2)nc2ccccn12 (centres undefined)	6	0.4	-10	0	5	-2
O=C(NCCOc1ccc(Cl)cc1)c1ccc2ccccc2n1	19	1.0	-3	4	11	24
Cc1ccc(NC(=O)NNC(=O)C2CC(c3cccnc3)=NO2)cc1 (centres undefined)	7	-0.6	-3	·	0	-2
CNC(=O)NC(=O)COC(=O)CCCSc1nc2ccccc2s1	-1	-0.3	-18	-16	36	-13
O=C(NCc1ccccc1C(F)(F)F)C1CC(c2ccc(C(F)(F)F)cc2)=NO1 (centres undefined)	3	-0.4	-17	8	1	10
Cc1cc(C)c(S(=O)(=O)NCCCN2CCOCC2)cc1Br	6	0.3	-10	-6	-10	1
CCOc1cc(CNc2ncn[nH]2)ccc1OCC(=O)NC(C)(C)C	-5	0.9	-4	13	7	0
COc1cc(CC(=O)Nc2sc3c(c2C(N)=O)CCCC3)cc(OC)c1OC	-10	0.1	-3	2	8	-18
CNc1oc(/C=C/c2cc(OC)c(OC)c(OC)c2)nc1C#N	·	1.1	·	4	-21	·
CCOCC(=O)Nc1ccc(F)c(F)c1	6	-0.4	-7	-3	5	0
COc1cc(C)c(CNc2cc(C)cc(C)c2)cc1C	-11	1.9	9	4	-11	-15
CC(=O)Nc1ccc(NC(=O)CNC(=O)COc2ccccc2)cc1	7	2.4	-8	?	18	2
CCC(C)(C)n1nnnc1C(c1cc2cc(C)ccc2[nH]c1=O)N1CCCc2ccccc21 (centres undefined)	-9	1.8	-3	2	-9	-9
CCN(CC)C(=O)c1ccc(-c2nnc(Nc3cccc(O)c3)c3ccccc23)cc1	·	-1.3	0	-12	2	-17
Cn1c(=O)n(Cc2ccccc2F)c(=O)c2c1nc1n2CCCN1CCc1ccccc1	-12	0.9	5	-8	41	-2
CCNS(=O)(=O)c1ccc(NC(=O)c2ccccc2OCC)cc1	14	-0.2	-1	-1	49	3
COC(=O)c1ccccc1S(=O)c1snnc1C (centres undefined)	-22	-0.6	-13	-4	7	3
CCOC(=O)N1CCN(C(=O)CN(Cc2ccc(Cl)cc2)S(=O)(=O)c2ccc(C)cc2)CC1	-2	1.9	-1	-7	-4	6
CC(OC(=O)C1CCN(S(=O)(=O)c2ccc(Cl)cc2)CC1)C(=O)NC1CCCCC1C (centres undefined)	-1	1.2	6	4	-6	4
Cc1ccc(CC(=O)NCCN2CCOCC2)cc1	-11	0.5	-6	1	5	4
COc1ccc(NC(=O)C2CCN(C(=O)c3cccs3)CC2)c(OC)c1	-1	1.9	-1	7	-1	13
O=S(=O)(NC(=NC1CCCCC1)c1ccccc1F)c1ccccc1	8	0.1	-5	11	-11	1
COc1cc(C(=O)Nc2ccccc2NC(=O)c2cc(OC)c(OC)c(OC)c2)cc(OC)c1OC	·	1.5	-6	-9	13	3
CN1CCN(C(=O)C2=C[C@H](C3CC3)C[C@H](OCc3ccc(CO)cc3)O2)CC1	4	0.2	-23	·	-17	3
COc1cccc(NC(=O)C(Sc2nnc(Nc3ccccc3C)s2)c2ccccc2)c1 (centres undefined)	-23	0.0	-15	5	13	-11
Cc1cccc(C)c1OCC(=O)NNC(=O)CCNC(=O)c1ccco1	6	-0.8	-14	0	-7	6
COc1cc(Cl)c(C)cc1NC(=O)Cc1cccs1	16	-0.1	1	?	2	9
COc1cc2c(cc1OC)CN(C(=O)c1ccc(S(=O)(=O)N(C)c3ccccc3)cc1)CC2	-15	3.6	4	-16	9	-15
COc1cc(C)c(C(=O)CC(=O)c2c(C)cc(OC)cc2C)c(C)c1	-3	3.0	-1	·	14	18
COc1cc(C)c(C)cc1S(=O)(=O)N1CCCc2ccccc21	-1	7.1	-11	0	-1	7
OCCN1CCN(Cc2ccc3ccccc3c2)CC1	7	-0.2	-4	-2	8	3
O=C(CSc1ccc(Cl)cc1)N1CCN(c2ncc(C(F)(F)F)cc2Cl)CC1	0	2.9	-6	4	46	18
Cc1c(CN2CCC(CO)(CCOc3ccccc3)CC2)[nH]c2ccc(Cl)cc12	-11	0.8	-9	0	-1	-1
Cc1ccc(N/C(=C\C(=O)c2ccccc2)C(=O)O)cc1	0	-0.7	-6	1	10	-8
COc1ccc(N(CC(=O)NCc2cccnc2)S(=O)(=O)c2c(C)nn(C)c2C)cc1	9	0.2	1	·	1	5

Five entries out of the list, sorted by number of heavy atoms, falling.
SMILES	CtBP-E1A blk	TRPML1 ag	D2 PAM	TRPV1 PAM	TRPML1 blocker	Six1-Eya2 inh
COc1cccc(NC(=O)C(Sc2nnc(Nc3ccccc3C)s2)c2ccccc2)c1 (centres undefined)	-23	0.0	-15	5	13	-11
COc1ccc(N(CC(=O)NCc2cccnc2)S(=O)(=O)c2c(C)nn(C)c2C)cc1	9	0.2	1	·	1	5
Cc1c(CN2CCC(CO)(CCOc3ccccc3)CC2)[nH]c2ccc(Cl)cc12	-11	0.8	-9	0	-1	-1
Cc1cccc(C)c1OCC(=O)NNC(=O)CCNC(=O)c1ccco1	6	-0.8	-14	0	-7	6
Cc1ccc(N/C(=C\C(=O)c2ccccc2)C(=O)O)cc1	0	-0.7	-6	1	10	-8

Some of these compounds in order of the Six1-Eya2 inh value, highest first:
Compound,Six1-Eya2 inh
O=C(CSc1ccc(Cl)cc1)N1CCN(c2ncc(C(F)(F)F)cc2Cl)CC1,18
COc1cc(C)c(C)cc1S(=O)(=O)N1CCCc2ccccc21,7
COc1ccc(N(CC(=O)NCc2cccnc2)S(=O)(=O)c2c(C)nn(C)c2C)cc1,5

(cont.)
SMILES	CtBP-E1A blk	TRPML1 ag	D2 PAM	TRPV1 PAM	TRPML1 blocker	Six1-Eya2 inh
Cn1c(=O)c2c(nc(OCc3ccc4c(c3)OCO4)n2Cc2ccccc2Cl)n(C)c1=O	1	0.1	1	17	-2	-2
COC(=O)c1ccc(NC(=O)COc2coc(CN3CCc4ccccc43)cc2=O)cc1	5	0.0	-4	-19	-1	-1
O=C(C1CC1)N1CCCN(C(=O)C2CC2)CC1	2	0.1	-11	-8	36	7
O=C1CSC(c2ccc(Cl)cc2)N1c1cccnc1 (centres undefined)	8	78*	-8	9	-22	4
COCCNC(=O)c1cccc(OC2CCN(Cc3ccc(C(C)C)cc3)CC2)c1	2	-0.2	-23	16	3	3
CCOc1ccc(N(CC(=O)OC)S(=O)(=O)c2ccc(OC)c(OC)c2)cc1	3	-0.3	-16	-5	-7	0
O=C(NCC1CCNCC1)c1ccncc1	10	0.7	1	13	13	13
Cc1ccc(-n2c(-c3ccccc3)n[nH]c2=S)c(C)c1	0	0.7	-2	-2	-16	18
Cc1cc2cc(C(=O)N3CCc4c([nH]c5ccccc45)C3c3ccccn3)ccc2o1 (centres undefined)	-13	1.0	-20	-3	-6	5
O=C(CCn1c(=O)oc2ccccc21)Nc1nc2ccccc2s1	-1	0.2	0	22	-10	-8
C=CCNC(=S)Nc1ccc(C)cc1[N+](=O)[O-]	6	0.9	-5	4	-1	-7
O=C(c1ccc2noc(-c3ccccc3)c2c1)N1CCN(c2ccccc2)CC1	-5	0.3	72*	8	-7	-22
Cc1ccc(S(=O)(=O)N(C)C)cc1NC(=O)c1n[nH]c(=O)c2ccccc12	-9	-0.5	-13	2	-5	-8
CC(C)NC(=O)CSc1ccccc1C(=O)N1CCN(S(=O)(=O)/C=C/c2ccccc2)CC1	3	-0.5	0	8	10	-4
Nn1c(SCC(=O)Nc2nccs2)nnc1-c1ccco1	-1	-0.4	-24	-8	0	0
O=C(CSc1nc(-c2cccs2)cc(C(F)(F)F)n1)NCc1ccccc1	3	2.8	-11	-9	25	1
CCC1CCCCN1c1nc(-c2ccncc2)nc2ccccc12 (centres undefined)	-14	1.5	-5	-13	23	-4
C=CCOc1ccccc1CNCCCN1CCOCC1	4	0.4	-12	-6	27	3
CCOc1ccccc1NC(=O)c1cc(S(=O)(=O)N2CCN(CC)CC2)ccc1Cl	-4	2.5	5	1	-11	0
O=C(NCc1nnc(SCC(=O)N2CCN(c3ccccc3)CC2)o1)c1c(F)cccc1Cl	-5	-0.5	-1	1	2	7
CN(Cc1ccccc1)C(=O)c1ccc2sc([C@H]3C[C@H](O)[C@@H](CO)O3)nc2c1	6	-0.3	0	·	·	3
COc1cccc(OCC(O)CN2CCOCC2)c1 (centres undefined)	21	-0.4	-21	13	1	12
CSc1ncc(Cl)c(C(=O)C(C#N)c2nc3c(C)cc(C)cc3c(=O)[nH]2)n1 (centres undefined)	-17	-0.1	-1	-8	-7	-17
O=C(CSc1nnc(-c2cccs2)o1)N1CCCCC1	8	0.5	-2	-25	-25	8
NC(=O)c1ccsc1NC(=O)C1CCN(S(=O)(=O)c2cccs2)CC1	-19	0.4	-5	-11	17	1
Cc1cc(F)ccc1S(=O)(=O)N1CCCOC1CNC(=O)C(=O)NCC(C)C (centres undefined)	4	-0.1	-14	9	-22	-3
COc1ccccc1NC(=O)C1=C(C)NC(=O)NC1c1ccc(C)cc1 (centres undefined)	1	-1.2	-7	-22	1	8
CCN(CC)S(=O)(=O)c1cccc(NC(=O)CC2CCCC2)c1	1	-0.5	-5	5	-1	-2
CSc1nc(=O)n2cccc(C)c2n1	40	0.6	-4	·	-2	-19
O=C(NCc1cc(C(F)(F)F)cc(C(F)(F)F)c1)C1CC(c2ccc(C(F)(F)F)cc2)=NO1 (centres undefined)	11	0.8	-2	·	-3	6
FC(F)(F)c1ccc(C2[C@H]3CN(Cc4cccnc4)[C@H](c4ccccc4)C34CC2(c2cccnc2)C4)cc1 (some centres undefined)	-5	0.1	-15	-27	47	-8
NC(=O)c1ccccc1OCC(=O)O	0	0.0	-3	-3	8	10
C=CCN1C(=O)/C(=c2\sc3nc(=O)c(Cc4ccccc4)nn3c2=O)c2ccccc21	-7	-0.2	-11	9	25	-15
O=C(c1ccc(CS(=O)(=O)Cc2ccccc2)cc1)N1CCCCC1	11	-0.1	-2	6	6	3
Cc1ccc(NC(=O)c2ccc(S(=O)(=O)NCC3CCCO3)cc2)cc1C (centres undefined)	-2	-1.1	-21	-9	3	-15
CCOC(=O)[C@H]1[C@H]2COc3ccc(C)cc3[C@@H]2N2C(=O)CN(Cc3ccc(F)cc3)C(=O)[C@@]12C	0	-0.4	-1	-19	0	0
O=C(NNc1cc(N2CCOCC2)nc(N2CCOCC2)n1)c1ccc(Cl)cc1Cl	8	-0.4	8	-3	-5	7
COc1ccc(S(=O)(=O)N2CCN(Cc3cc(OC)c(OC)c(OC)c3)CC2)cc1	-2	-0.2	-1	26	-5	-5
Cc1ccc(NC(=O)Cn2nnc3ccccc3c2=O)cc1	0	0.6	-5	1	36	7
O=C(C(=O)N1CCN(c2ccccc2F)CC1)c1c[nH]c2ccccc12	-5	-0.4	-3	14	21	-7
CNC(=O)c1ccsc1NC(=O)c1ccc(S(=O)(=O)N2CCOCC2)cc1	-4	1.7	10	8	-10	-24
CC(C)N(C(=O)COC(=O)CNS(=O)(=O)c1ccccc1F)c1ccccc1	·	2.6	-7	1	5	0
